Assay outcomes (PubChem)
D2 agonist: agonists of human D2 dopamine receptor (beta-arrestin). DiscoveRx PathHunter D2 beta-arrestin, luminescence, 90 min; 100% = 57 uM dopamine signal. activation, % (concentration not given with the values). hit rate 0.084% among 360,000. AID 624465; in the data active = activation above about 40%; inconclusive = about 15% to 40%; inactive = below about 15%; also: compound concentration not given in the record; the text of the record calls up to 30% inactive
Target sequence (P14416 whole entry, looked up): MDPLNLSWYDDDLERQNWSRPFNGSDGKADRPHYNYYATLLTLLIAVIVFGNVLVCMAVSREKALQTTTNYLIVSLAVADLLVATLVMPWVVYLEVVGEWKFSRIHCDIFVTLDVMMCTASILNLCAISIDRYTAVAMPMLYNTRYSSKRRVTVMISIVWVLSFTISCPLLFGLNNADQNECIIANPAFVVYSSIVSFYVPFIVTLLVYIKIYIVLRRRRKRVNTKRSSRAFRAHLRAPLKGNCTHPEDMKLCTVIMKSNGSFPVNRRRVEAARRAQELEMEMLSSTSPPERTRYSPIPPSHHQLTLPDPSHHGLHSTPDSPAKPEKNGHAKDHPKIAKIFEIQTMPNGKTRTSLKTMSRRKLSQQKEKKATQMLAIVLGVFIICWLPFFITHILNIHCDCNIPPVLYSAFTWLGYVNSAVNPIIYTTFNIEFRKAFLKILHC
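Agonist mode: compounds alone added to overnight-plated D2 PathHunter cells for 90 min at 37 C, with 57 uM final dopamine (EC100) defining full response. Beta-arrestin recruitment detected by chemiluminescent reagent, read after 1 h at ambient temperature.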
CtBP-E1A blk: blocks the CtBP interaction with E1A; AlphaScreen GST-E1A/His-CtBP binding, 1536-well; stronger effect = lower value; control for the full effect not named in the record; activity change, % (concentration not given with the values); hit rate 0.49% among 340,000; AID 651724; in the data active means activity change below about -65%; inconclusive means about -30% to -65%; inactive means above about -30%; also: % is scaled to controls: 0 for no effect and ±100 for the full control effect
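In 5 uL wells, 23 nL compound meets equimolar GST-E1A and His-CtBP (5X stock 125 nM each) for 2 h, 37 °C. Beads (5X, 50 ug/mL) then 1 h, 37 °C, dark.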
Six1-Eya2 inh: Six1/Eya2 interaction inhibition. Q15475+O00167. AlphaScreen GST-Six1/His-Eya2 binding, biochemical; stronger effect = lower value; control for the full effect not named in the record. activity change, % (concentration not given with the values). hit rate 0.56% among 360,000; in the data active = activity change below about -65%; inconclusive = about -30% to -65%; inactive = above about -30%; also: % is scaled to controls: 0 for no effect and ±100 for the full control effect
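GST-Six1 + His-Eya2 (5X stock: 250/500 nM); Tris pH 8.0, 300 mM NaCl, 0.05% BSA, 0.02% Tween 20; GSH donor/Ni acceptor beads; 1 h 37 °C dark; AlphaScreen readout.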
TRPML1 blocker: blocks the human TRPML1 channel; activity change, negative = inhibition, % (no concentration beside the values); TRPML1-inducible cells, Ca2+ dye fluorescence, FDSS; stronger effect = lower value; inhibition of EC80 agonist-evoked calcium signal; hit rate 0.02% among 390,000; AID 624415; Q9GZU1; in the data active means activity change below about -50%; inconclusive means about -30% to -50%; inactive means above about -30%;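 also: stimulus is agonist 54-4 at its EC80 concentration; % is scaled to controls: 0 for no effect and ±100 for the full control effect; compound concentration not given in the record; the text of the record puts the active cut at -80%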
Target sequence (Q9GZU1 whole entry, looked up): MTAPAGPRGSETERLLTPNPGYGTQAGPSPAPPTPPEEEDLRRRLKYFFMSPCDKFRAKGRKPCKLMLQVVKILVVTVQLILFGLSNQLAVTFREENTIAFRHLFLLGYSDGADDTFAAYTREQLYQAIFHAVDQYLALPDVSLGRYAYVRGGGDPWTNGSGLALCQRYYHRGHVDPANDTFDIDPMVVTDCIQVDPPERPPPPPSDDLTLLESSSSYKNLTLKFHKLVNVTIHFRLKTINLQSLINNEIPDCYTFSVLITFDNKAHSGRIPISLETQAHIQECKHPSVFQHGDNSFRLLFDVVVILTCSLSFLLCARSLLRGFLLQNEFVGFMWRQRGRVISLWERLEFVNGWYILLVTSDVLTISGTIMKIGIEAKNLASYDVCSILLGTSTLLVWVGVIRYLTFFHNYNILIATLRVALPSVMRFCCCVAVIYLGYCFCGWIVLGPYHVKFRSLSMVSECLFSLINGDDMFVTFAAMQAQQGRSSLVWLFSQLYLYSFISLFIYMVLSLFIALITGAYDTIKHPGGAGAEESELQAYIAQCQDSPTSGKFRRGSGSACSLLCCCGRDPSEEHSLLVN
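Calcium fluorescence in TRPML1-DL cells induced overnight with Tet: a 110 s read after compound pin addition, then a 110 s antagonist read after challenge with 54-4 at 4 uM final (EC80).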
PINK1 modulator: changes PINK1 expression. PINK1 immunofluorescence, high-content cytometry, 24 h. Potency, µM (top dose mostly 76.6 µM), for the others: at the top dose activation (PINK1 increase), usual class: activators. hit rate 0.2% among 410,000. AID 624263; active = well fitted activation curve with a large enough effect; inconclusive = small, poorly fitted or top-dose-only effect; inactive = flat fitted curve, though single readings scatter; cell line not stated here;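 also: potency is read from the fitted curve at half-maximal effect; % of control where 0% means no effect; nearly all actives have a fitted effect of over 65% in size; a mitochondrial uncoupler was the plate control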
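Compound titrations (5 concentrations, 24 h) on a stable cell line; DMSO and CCCP controls. Endpoint: fixed-cell PINK1 immunofluorescence with mitochondrial, cell and nuclear markers, scanned by microplate cytometer.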
TRPML1 agonist: human mucolipin-1 channel agonism. Q9GZU1. TRPML1-expressing cells, Ca2+ dye fluorescence, FDSS; host cell line not named in the record; reference of the full effect not given here. activation, % (no concentration beside the values). hit rate 0.12% among 410,000; in the data active = activation above about 50%; inconclusive = about 30% to 50%; inactive = below about 30%; also: 0% is about no effect; the text of the record puts the active cut at 80%
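Calcium fluorescence on an FDSS kinetic reader gave the read-out. Tet-induced TRPML1-DL cells were plated overnight, dye-loaded (Ca8 with quencher, 45-90 min, room temperature, dark), then read 110 s after compound addition, and again 110 s after 4uM final 54-4 (EC80).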
Active calls of the source: *; u = inconclusive; x = not tested or not shown; & = joins results of further samples; [ ] = remark or other dose.

SMILES	D2 agonist	CtBP-E1A blk	Six1-Eya2 inh	TRPML1 blocker	PINK1 modulator	TRPML1 agonist
COC(=O)c1c(C)nc2ccccc2c1-c1ccccc1	-3.3	1	0	-17	20%[38.3 µM]	0.4
COc1cc(NC(=O)Cn2ccn(-c3cc(C)cc(C)c3)c(=O)c2=O)cc(OC)c1	x	x	x	21	-0.9%	0.3
CS(=O)(=O)N(Cc1ccccc1Cl)c1ccc(C(=O)NCc2cccnc2)cc1	-4.2	-11	3	3	-0.1%	1.1
COc1ccc(OC)c(NC(=O)CNC(c2ccccc2)c2ccccc2)c1	-4.6	9	-13	24	0.0%	3.1
Cn1c(SCC(=O)N2CCCC2)nnc1-c1cccs1	-5.4	-2	24	4	1.0%	0.3
Cc1c(Cl)cccc1N1C(=O)CC(NNC(=O)c2cccs2)C1=O (stereo not drawn)	-5.9	11	-8	6	2.0%	1.3
O=C1N[C@H](Cc2ccccc2)C(=O)N[C@H]1Cc1cn(S(=O)(=O)c2ccccc2)c2ccccc12	-1.8	1	-7	-7	4.1%	-0.4
Cc1ccc(-c2nn(-c3ccccc3)cc2C(N)=O)o1	-2.2	-18	-2	5	0.0%	2.6
COc1ccc(C2/C(=C(/O)c3ccccc3)C(=O)C(=O)N2C)cc1 (stereo not drawn)	-1.0	-5	-11	-10	1.2%	-0.1
CC(C)c1ccc(NC(=O)C2CCCN(S(=O)(=O)c3ccc4[nH]c(=O)ccc4c3)C2)cc1 (stereo not drawn)	x	x	x	-8	-0.3%	-0.2
O=C(NCc1nnc(SCC(=O)N2CCN(c3ccccc3)CC2)o1)c1ccco1	-1.9	1	1	26	-0.3%	0.5
Brc1ccc(OCc2ccccc2)c(CNCC2CCCO2)c1 (stereo not drawn)	-0.4	x	-3	-17	5.6%	0.7
O=C(Nc1ccc(F)cc1)N(CCCN1CCOCC1)Cc1cc2cc3c(cc2[nH]c1=O)OCCO3	-1.5	-4	10	29	2.8%	-1.3
Nc1c(C(=O)NCCc2ccccc2)sc2nc(N3CCOCC3)c3c(c12)CCCC3	1.3	2	-4	5	1.3%	1.7
CCn1cc(/C=C(\NC(=O)c2cc(OC)c(OC)c(OC)c2)C(=O)NCCCN2CCOCC2)c2ccccc21	-5.5	-18	-15	-17	-1.0%	-0.3
COc1ccc(/C(C)=N/Nc2nc(C)cc(-c3ccccc3)n2)cc1	u	-3	1	-9	4.0%	1.6
CCOC(=O)COc1ccc(CC)cc1C(=O)c1ccn2nc(-c3ccccc3)cc2n1	x	x	x	2	5.7%	-0.3
COc1ccc(N=Cc2c(O)[nH]c3ccccc23)cc1	-1.2	-9	-16	7	-4.2%	-0.4
CC(C)Oc1cccc(C(=O)N/N=C/c2coc3ccccc3c2=O)c1	-1.1	5	1	10	2.0%	-0.6
CC1CN(S(=O)(=O)c2cc(C(=O)N(CCc3ccccc3)Cc3ccccc3)ccc2Cl)CC(C)O1 (stereo not drawn)	0.2	5	-7	34	2.2%	0.2

Record cards, from the list above. Values in the order: D2 agonist | CtBP-E1A blk | Six1-Eya2 inh | TRPML1 blocker | PINK1 modulator | TRPML1 agonist
Record of CC(C)Oc1cccc(C(=O)N/N=C/c2coc3ccccc3c2=O)c1 : -1.1 | 5 | 1 | 10 | 2.0% | -0.6
Record of O=C(NCc1nnc(SCC(=O)N2CCN(c3ccccc3)CC2)o1)c1ccco1 : -1.9 | 1 | 1 | 26 | -0.3% | 0.5
Record of O=C(Nc1ccc(F)cc1)N(CCCN1CCOCC1)Cc1cc2cc3c(cc2[nH]c1=O)OCCO3 : -1.5 | -4 | 10 | 29 | 2.8% | -1.3
Record of COc1ccc(/C(C)=N/Nc2nc(C)cc(-c3ccccc3)n2)cc1 : u | -3 | 1 | -9 | 4.0% | 1.6
Record of COc1ccc(N=Cc2c(O)[nH]c3ccccc23)cc1 : -1.2 | -9 | -16 | 7 | -4.2% | -0.4

Further entries.
SMILES	D2 agonist	CtBP-E1A blk	Six1-Eya2 inh	TRPML1 blocker	PINK1 modulator	TRPML1 agonist
O=C(NCC(=O)N(c1ccc2c(c1)OCCO2)C(C(=O)NC1CCCC1)c1ccco1)c1ccco1 (stereo not drawn)	-4.1	5	0	-27	-0.2%	-0.2
CCC(C)c1ccccc1N1CC(C(=O)Nc2ccc(S(=O)(=O)N3CCOCC3)cc2)CC1=O (stereo not drawn)	-0.9	1	-1	-9	2.3%	0.2
CCCCc1c(-c2ccccc2OC)ncn1CCc1cccc(OC)c1	x	-2	-14	x	u	1.4
CC(=O)Nc1ccc(NC(=O)c2cnn(-c3ccccc3)c2C2CCN(C(=O)OC(C)(C)C)CC2)cc1	x	x	x	-6	1.3%	0.4
COc1ccc(C(=O)NNC(=S)NC(=O)/C=C/c2cccs2)cc1	-0.4	3	-1	0	1.7%	-0.5
Cc1ccc(NC(=O)c2ccccc2Br)cc1S(=O)(=O)N(C)C	-2.2	-1	-29	1	-1.3%	-0.6
CCc1ccccc1N(CC(=O)Nc1cccnc1)S(=O)(=O)c1ccccc1	0.8	4	-11	30	2.4%	0.4
COc1ccc(NC(=O)Cc2ccsc2)c(OC)c1	-1.6	4	-9	20	-0.8%	0.1
CN(CCOc1ccc(-c2ccn(S(=O)(=O)c3cccc4ccccc34)n2)cc1)c1ccccn1	1.6	-10	-6	7	0.5%	1.9
COc1ccc(N(CC(O)CN2C(=O)NC(C)(C)C2=O)S(=O)(=O)c2ccccc2)cc1 (stereo not drawn)	-3.0	2	-1	22	1.4%	-0.9
O=C(c1ccccc1)c1cccn1CC(=O)N1CCN(C2CCCCC2)CC1	-3.2	0	-4	-2	4.8%	-0.3
COC(=O)C1=C(C(=O)OC)C2C=CC1C1C(OC(C)=O)C(OC(C)=O)C21 (stereo not drawn)	-3.0	-3	2	18	-0.3%	-0.6
Cc1ccc(-n2ncc3c(N4CCN(Cc5ccccc5)CC4)ncnc32)cc1Cl	x	x	x	-24	0.0%	-0.6
COc1ccc(CCNC(=O)C(=O)NCC2OCCN2S(=O)(=O)c2cccs2)cc1OC (stereo not drawn)	11	2	-2	6	1.2%	0.8
CNc1cc(C(=O)Nc2cccc(OCc3ccccc3)c2)ncn1	5.6	1	0	-9	9.3%	0.1
COc1ccc(NC(=O)c2oc3ccccc3c2CSC)cn1	-4.1	-12	-4	38	1.3%	2.1
COc1ccc(C(C)(C)NC(=O)C2CCC(=O)N(C3CC3)C2)cc1OC (stereo not drawn)	-4.0	11	28	-13	-1.6%	0.4
CCc1nn(C(C)C(=O)NC(C)CCc2ccco2)c(=O)c2cc3occc3n12 (stereo not drawn)	-7.5	-7	-8	-1	0.7%	2.0
COc1ccc(OC)c(CCNC(=O)CCCn2c(=O)c3cccn3c3cccnc32)c1	x	x	x	5	1.3%	-0.9
O=C(Cc1ccc(Br)cc1)N1CCCCCC1	-0.5	4	5	-7	-0.2%	-0.4
COc1ccc(S(=O)(=O)Nc2ccccc2C)cc1C(=O)N1CCOCC1	-5.9	5	2	-3	0.4%	-0.5
Cc1cc(S(=O)(=O)NCc2cccs2)ccc1-n1cnnn1	1.0	1	4	-9	5.4%	0.9
Cn1c(=O)c(=O)n(C)c2cc(NC(=O)c3cccc(F)c3)c(Cl)cc21	x	x	x	16	-0.7%	2.4
CCOC(=O)C1=C(COC(=O)CCc2ccc(F)cc2)NC(=O)NC1C (stereo not drawn)	2.2	x	0	-8	2.1%	-0.5
O=C(c1ccc([N+](=O)[O-])s1)N1CCN(c2ncccn2)CC1	-2.2	-4	0	-12	3.2%	-0.1
CCOC(=O)C1CCN(Cc2nc3ccccc3c(=O)n2-c2ccc(OCC)cc2)CC1	-1.0	0	-7	3	-2.2%[38.3 µM]	-0.3
CN(CC(=O)NCC1CCCCC1)S(=O)(=O)c1ccc(Cl)cc1	0.0	6	-3	-11	-0.3%	-0.3
O=C(CNS(=O)(=O)c1cccs1)N1CCN(c2ccccc2F)CC1	0.5	-14	1	10&0	1.3%&-0.2%	-0.6&-0.3
Cc1cccc(Nc2nc(-c3ccccc3)cs2)n1	-2.1	x	1	9	6.6%	-0.1
COc1ccc(/C=C(\NC(=O)c2ccccc2)C(=O)NCCN2CCOCC2)cc1	-5.4	-24	-3	-6	0.0%	0.3
COc1cc(-c2noc(C3CC(=O)N(c4ccc5c(c4)OCCO5)C3)n2)cc(OC)c1OC (stereo not drawn)	x	x	x	-8	2.2%	0.7
COc1cccc(-n2ccn(CC(=O)Nc3ccccc3F)c(=O)c2=O)c1	x	x	x	12	3.5%	-0.3
COC(=O)c1sc(NC(=O)c2ccco2)c(C#N)c1C	-3.3	x	7	6	0.3%	1.7
O=C(/C=C/c1ccc(O)cc1)c1ccccc1	-1.7	3	0	4	-2.6%	-1.2
Cc1c(OCC(=O)N2CCC(C(=O)O)CC2)ccc2c1oc(=O)c1ccccc12	6.8	-20	-17	x	0.1%	x
COc1ccc(OCC(=O)OCC(=O)NC2CCCCC2C)cc1 (stereo not drawn)	-3.4	x	2	-10	-0.7%	-0.6
COc1ccc(NC(=O)Cc2ccc(-c3ccccc3)cc2)cn1	-2.4	3	5	25	6.7%	0.6
CCCCn1c(SCC(=O)N2CCCC2=O)nc2cc(S(N)(=O)=O)ccc21	-4.7	-4	5	-5	-1.1%	-0.4
COc1cc(-c2cc(C(=O)Nc3cc(S(=O)(=O)N4CCOCC4)ccc3C)c3ccccc3n2)cc(OC)c1OC	-0.7	-16	-3	-14	13%	0.5
CCCCOC(=O)c1c(N)n(-c2ccc(OC)cc2OC)c2nc3ccccc3nc12	x	x	x	-3	-5.3%	0.5
CCCC1C2C(=O)N(c3cccc(C)c3)C(=O)C2ON1c1ccccc1 (stereo not drawn)	-4.8	7	2	58	0.5%	1.5
COc1cc(/C=C2\NC(=S)N(C)C2=O)ccc1OCc1ccccc1F	-7.9	x	-6	5	6.9%	0.7
Cc1ccc(NC(=O)n2ncc3c(C)cccc32)cc1F	6.1	x	3	-4	1.0%	-0.4
CCCCn1c(SCC(=O)NCc2ccc3c(c2)OCO3)nnc1C(CC)N(C)C (stereo not drawn)	-4.8	8	-2	-14	2.5%	-0.2
Cc1oc2cc(O)ccc2c(=O)c1N1C(=O)c2ccccc2C1=O	-0.9	12	1	-9	1.0%	-0.1
O=S1(=O)c2cccc3cccc(c23)N1CCBr	14	11	34	-8	1.9%	-1.4
OCCC1CN(Cc2cccc(C(F)(F)F)c2)CCN1Cc1ccccc1 (stereo not drawn)	-0.4	x	0	5	2.8%	-0.2
O=C(NCC(c1cccnc1)N1CCN(Cc2ccccc2)CC1)C(=O)Nc1cccc(Cl)c1 (stereo not drawn)	x	x	x	1	1.4%	0.3
CCOC(=O)C1=C(CSc2nncn2C)NC(=O)NC1c1cc(OCC)ccc1OCC (stereo not drawn)	-3.9	9	0	15	-1.9%	-0.2
COc1cc(C(=O)OCC(=O)Nc2ccccc2)cc2c1OCCO2	-3.6	-12	0	-2	0.1%	0.3
